# Source: PubChem
# NPYLR7 ag: agonists of mosquito NPYLR7 receptor, primary screen, cell-based, Aedes aegypti, calcium fluorescence, mosquito biting behavior. Aedes aegypti neuropeptide Y-like receptor 7 (NPYLR7). HEK293T NPYLR7/Galpha15, GCaMP6s calcium fluorescence. activation, % at 10 µM. 270,000 compounds, 0.15% hits; in the data active means activation above about 40%;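 further: 0% = vehicle and 100% = reference agonist at the receptor; some compounds past the cut are filed as inactive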
# NPYLR7 ag max-min: also measured in NPYLR7 ag; calls as there; activation, %; measured here: Max-Min RFU normalised activation; some inactives read as strong as hits;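 span of the calcium signal over five minutes; 0% = vehicle and 100% = native peptide agonist; compound fluorescence can raise it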
# * = called active by the depositor; & = joins results of further samples. An excerpt (hit frequency here may not be typical).
# Values run as follows: NPYLR7 ag | NPYLR7 ag max-min
COc1ccc(OC)c(-c2nc(CN3CCCC3c3nonc3C)c(C)o2)c1 (centres undefined)
  -3 | -3
COCc1cc(N2CCOCC2)n2nccc2n1
  1 | 0
CCOC(=NCCCOC)NC(=O)c1ccco1
  -2 | 4
O=C(COc1ccccc1)Nc1nnc(Cc2ccc(Cl)s2)o1
  -7 | -9
O=c1[nH]c2nc3ccccc3n2c(O)c1Cc1ccccc1
  0 | 1
CCc1ccc(C(=O)N(CC(=O)N(Cc2ccccc2)Cc2ccco2)CC(C)C)cc1
  -9 | -2
O=C(O)C1Sc2c(sc(=O)n2-c2ccccc2)C2c3ccccc3OC(=O)C12 (centres undefined)
  5 | 3
COc1cccc(-n2nc(C(=O)N3CCCC3)c(=O)n(Cc3ccccc3)c2=O)c1
  -6 | 0
COc1ccc(CCN(C)c2nc(SCc3ccc(C(=O)NCc4ccco4)cc3)nc(C)c2C)cc1OC
  17 | 11
CC(C)CN(CC(=O)N(Cc1ccc2c(c1)OCO2)Cc1cccs1)C(=O)Nc1cccc(C(F)(F)F)c1
  -2 | 8
COCOc1cccc(CN2CCC2(C)C(=O)Nc2ccccc2Br)c1 (centres undefined)
  6 | 0
c1ccc(CC2CCCN2Cc2coc(-c3ccccc3)n2)cc1 (centres undefined)
  8 | 4
CN1CCCc2cc(C(CN)N3CCCCC3)ccc21 (centres undefined)
  5 | 3
CN1c2ccccc2C(=O)NC1c1csc(-c2ccc(C(F)(F)F)cc2)n1 (centres undefined)
  6 | 5
CCOc1ccc(NC(=O)CCC(=O)N2CCc3ccccc3C2)cc1
  -7 | -15
COc1cc(CN2CCC(CCC(=O)NCc3ccc(F)cc3)CC2)cc2c1OCO2
  0 | -2
Cc1nn(-c2ccc(F)cc2)c2nc(CCC(C)C)nc(N3CCN(C(=O)COc4ccccc4)CC3)c12
  -6 | 8
O=C(NCc1cnn2ccccc12)c1ccccc1Cl
  -4 | -5
CN1C(=O)NC(c2ccccc2C(F)(F)F)C2=C1CN(CC(=O)N1CCN(c3ccccn3)CC1)C2=O (centres undefined)
  0 | 6
CC(C)N(C(=O)Cn1cc(SCC(=O)Nc2ccc3c(c2)OCCO3)c2ccccc21)C(C)C
  -8 | -11
COCCN(Cc1nc(C(=O)N2CCN(C/C=C/c3ccccc3)CC2)cs1)C(=O)Nc1c(C)cccc1C
  18 | 15
c1ccc2oc(CN3CCC(c4nc5ccccc5s4)CC3)nc2c1
  0 | 5
COc1cc(C(C)NC(=O)C2CNC(=O)N2)ccc1OC1CCCC1 (centres undefined)
  20 | 21
Cc1c(C(=O)NCCc2ccc(F)cc2)cnc2c(-c3ccc(C(C)C)cc3)cnn12
  12 | 1
CC(=O)N1CCCN(c2nnc(C)c3c(C)n(-c4ccccc4)nc23)CC1
  -4 | -2
N#CCn1cnc2c(-c3cccc(Cl)c3)csc2c1=O
  3 | 2
CCO[C@H]1COC[C@@H]1NC(=O)Cn1cc(Cl)c(C)n1
  12 | 9
C#Cc1cccc(N(CC(=O)NC)C(=O)CCCn2ccnc2C)c1
  0 | 0
Cc1cc(F)ccc1NC(=O)CCC1CCCN(C(=O)Cc2ccsc2)C1 (centres undefined)
  8 | 7
CCOC(=O)c1ccc(N=c2oc3ccc4ccccc4c3cc2C(N)=O)cc1
  -3 | -7
NC(=O)c1nc(-c2cccs2)nc2c1[nH]c(=O)n2-c1ccc2c(c1)OCO2
  -5 | -5
COC(C)(C)CC(C)NCCc1nc2c(C)c(C)ccc2[nH]1 (centres undefined)
  4 | -4
Cc1ccc(CN(Cc2ccc(C(O)(c3cccs3)c3cccs3)o2)C(C)C)s1
  14 | 15
FC(F)(F)c1cc(-c2cccs2)nc(-n2cc(Cl)cn2)n1
  5 | 0
C=CCn1c(=O)c(C(=O)Nc2ncccc2C)c(O)c2ccccc21
  3 | 1
O=C1C(Nc2ccc(Br)cc2)=C(N2CCCCC2)C(=O)c2ccccc21
  -2 | 1
CCN(CC)C(=O)Oc1ccc2c(ccn2Cc2cc(C(F)(F)F)ccc2C(F)(F)F)c1-c1cc(F)cc(F)c1
  26 | 18
c1csc(COc2ccc3c(C4CC4)noc3n2)c1
  3 | 1
CCCCCCCCCCCCCCC(C(=O)O)C(O)(CC(=O)OC)C(=O)O (centres undefined)
  -11 | -15
O=C(NCCc1csc(N2CCCC2)n1)N1CCC2CCCCC21 (centres undefined)
  -1 | -4
COc1ccc(C(C)n2ccc3c(cnc4ncnn43)c2=O)cc1 (centres undefined)
  3 | 7
Cc1nn(C)c(Cl)c1C1CCCN1C(C)c1nc(C2CC2)no1 (centres undefined)
  0 | 0
CCc1nc2c(OCCOC)cccn2c1N(C)C(=O)COc1ccccc1
  -18 | -20
O=C(NCCc1ccco1)c1cccc(Cl)c1Cl
  -1 | -2
CCOC(=O)c1cc(-c2ccc(N3CCN(C(=O)c4cc(C)nn4C)CC3)cc2)n(-c2ccc(OC)cc2)n1
  3 | -2
CCc1nc2ccc(C(=O)Nc3cccc(NS(C)(=O)=O)c3)cn2c1N(C)CCCc1ccccc1
  20 | 13
COc1cn(CC(=O)Nc2ccccc2)c(CSc2ccc(C)cc2)cc1=O
  -6 | -12
CSc1ccc(C2SCC(=O)N2c2ccccc2F)cc1 (centres undefined)
  -4 | -9
Cc1ccc(P(=Nc2ccccc2Br)(N2CCCC2)N2CCCC2)o1
  11 | 23
Cc1ccc(OCC(=O)N2CCC3(CC2)C(=O)N(C)c2ccccc23)cc1
  -6 | -7
CN(Cc1ccc(C(N)=O)cc1)Cc1cc(C(C)(C)C)cc(O)c1O
  7 | 5
CO[C@H]1C(=O)N(C)C2(CCN(S(=O)(=O)c3cccs3)CC2)[C@@H]1C(=O)N(C)c1ccccc1
  21 | 30
N#CCN1CCC(CNc2ncc(C#N)cc2Cl)CC1
  5 | 2
OCc1ccc(-c2nccn2Cc2cn3c(n2)SCC3)o1
  -3 | -6
O=C(c1cc(-c2ccccc2F)nc2cc(-c3ccccc3)nn12)N(CCc1ccccc1)Cc1ccccc1
  26 | 27
C=CCN1CC(OC(=O)NCc2ccc(F)cc2)CN(C(=O)c2ccccc2)CC1=O (centres undefined)
  6 | 19
CC(C)Cc1c(O)nc(SCC(=O)NC(C)(C)C)[nH]c1=O
  18 | 11
COc1ccc(NC(=O)N(CC(=O)N2c3ccccc3-n3cccc3C2c2ccc(Cl)cc2)C2CC2)cc1 (centres undefined)
  -5 | 1
Cc1ncc2c(c1CNC(=O)/C=C/c1cccs1)CCN(C(=O)c1ccc(F)cc1)C2
  18 | 22
CC(=O)NC1(C(=O)OCc2cn3c(C)cc(C)nc3n2)CCC(C)CC1 (centres undefined)
  -3 | -5

# Reprinted at random: 2 compounds from above
# Values run as follows: NPYLR7 ag | NPYLR7 ag max-min
CC(=O)NC1(C(=O)OCc2cn3c(C)cc(C)nc3n2)CCC(C)CC1 (centres undefined)
  -3 | -5
O=C(c1cc(-c2ccccc2F)nc2cc(-c3ccccc3)nn12)N(CCc1ccccc1)Cc1ccccc1
  26 | 27

# (continued)
# Values run as follows: NPYLR7 ag | NPYLR7 ag max-min
CCOc1ccc(S(=O)(=O)Nc2ccc(C(=O)NC(C)CC)cc2)cc1 (centres undefined)
  0 | -1
Cc1cccc2sc(N(Cc3ccccc3)C(=O)c3ccno3)nc12
  -6 | -10
COc1ccc(CCNC(=O)c2ccc3c(c2)CCN3C(C)=O)cc1
  8 | 7
COc1ccc(S(=O)(=O)N2CCN(c3nc4ccccc4nc3-c3ccccc3)CC2)cc1
  4 | 0
COCCNC(=O)Cn1c(CO)c[nH]c1=S
  -5 | -7
COc1ccc(C(C)Nc2ccc(C#N)cn2)cc1F (centres undefined)
  -3 | -2
O=C(c1ccc2nc[nH]c2c1)N1CCCC(C/C=C/c2ccccc2)(C(=O)O)C1 (centres undefined)
  -4 | -4
COc1ccc(NC(=O)N(Cc2cccn2Cc2ccccc2Cl)C2CCCCC2)cc1
  13 | 21
CCOC(=O)c1c(NC(=O)C(OC(C)=O)c2ccccc2)c(-c2cccc(F)c2)cn1C (centres undefined)
  4 | 8
Cc1ccc(C(=O)CSc2nnnn2C)s1
  4 | 10
COCc1cc(N2CCN(Cc3ccc4c(c3)OCO4)CC2)nc(SCc2ccc(C(=O)NC3CC3)o2)n1
  -4 | 0
CC(=O)Nc1ccc(CC23CC4CC(CC(C4)C2)C3)cc1
  15 | 14
COc1ccccc1/C=C/C=C1\N=C(c2ccc(C(C)(C)C)cc2)OC1=O
  -3 | -7
COc1c(C2CCCN2C2CC(C)OC2=O)c(C)nn1C (centres undefined)
  9 | 5
COCc1nn2c(nnc3c(=O)n(Cc4ccccc4Cl)ccc32)c1-c1ccccc1
  -2 | 5
CCCCN1CC(c2nc3ccccc3n2CCOc2ccc(Cl)cc2)CC1=O (centres undefined)
  4 | -2
COc1ccc(C)cc1-n1c(Cn2ccnc2)nnc1SCC(=O)O
  13 | -2
COc1ccc(CN(Cc2nc3cc(C)ccc3o2)C(=O)c2ccc(Cl)cc2Cl)cc1
  7 | 6
CCOC(=O)CCCC(=O)N1CCN(c2cc(S(=O)(=O)N3CCCC(C)C3)ccc2OC)CC1 (centres undefined)
  10 | 2
CC(=O)NCCc1ccc(C(=O)N(C)Cc2ccc(Cl)c(Cl)c2)cc1
  1 | -3
CCCCNC(=O)c1cc(-c2ccccc2F)nc2cc(-c3ccccc3)nn12
  4 | 9
Cn1nnc2c(N3CCN(C(=O)C4CC(=O)N(c5ccccc5)C4)CC3)ncnc21 (centres undefined)
  0 | 14
Cc1nnc(SCc2csc(-c3c(F)cccc3F)n2)s1
  -16 | -3
CCOC(=O)c1c(NC(=O)c2ccco2)sc(C(=O)Nc2cccc(Cl)c2)c1C
  -8 | -15
O=C(O)C1CC2(CCNCC2)CN1Cc1cn[nH]c1-c1ccc(F)cc1 (centres undefined)
  13 | 10
COc1ccc(-c2nn(-c3cccc(F)c3)c(OC(C)=O)c2-c2ccc(N)cc2)c(OC)c1
  30 | 20
C=CCN(Cc1csc(COc2cc(C)cc(C)c2C)n1)C(C)=O
  16 | 23
CN(C)C(=O)CN1CCN(C(=O)c2ccc(Cl)cc2NC(=O)c2ccc(F)cc2)CC1
  -3 | -1
COc1ccc(NC(=O)C(C2CCCC2)N2CCN(C(=O)c3ccccc3F)CC2)cc1 (centres undefined)
  7 | 10
N#Cc1c(Cl)nsc1NC1CCSc2c(F)cccc21 (centres undefined)
  1 | -1
CCCc1nc(CNC(=O)c2cn3c(n2)CNCC3)cs1
  -4 | -8
CCc1nc2c(OC)cccn2c1N(C=O)Cc1ccccc1
  -3 | -8
CC1CCC(NC(=O)C2CCC(CNc3c(N4CCC(C)CC4)c(=O)c3=O)CC2)CC1 (centres undefined)
  6 | 4
N#CC1(c2ccccc2)CCN(S(=O)(=O)c2ccccc2C(F)(F)F)CC1
  -11 | -13
COC(=O)c1ccc(CCNS(=O)(=O)N2CCCCCC2)cc1
  -2 | -2
COc1ccc(CN2CCN(Cc3ccc(CO)o3)CC2CCO)c(F)c1 (centres undefined)
  -5 | -6
O=C(NCc1ccncc1)C1CC(c2ccccc2)=NO1 (centres undefined)
  -1 | 5
NC(=O)c1ccc(C(F)(F)F)n(CC(=O)N2CCCC2c2cccs2)c1=O (centres undefined)
  1 | 1
CCOc1ccc(-n2nnnc2CN2CCN(C(=O)c3c(C)noc3C)CC2)cc1
  2 | 1
CC(C)CNc1nnc(SCC(=O)Nc2ccccc2)s1
  11 | 10
O=C(NCCOc1ccccc1)c1cccnc1Nc1cccc(C(F)(F)F)c1
  -4 | -11
CSc1nnc(SCc2csc(-c3ccc(Cl)cc3)n2)s1
  32 | 35
CC(C)CC(CNS(=O)(=O)c1ccccc1Br)N1CCCC1 (centres undefined)
  8 | 8
CC(C)c1ccc(N2CCN(C(=O)c3cccc(F)c3)C(C)C2=O)cc1 (centres undefined)
  -8 | 0
CN1CCN(C(CNC(=O)c2ccc(-c3ccccc3)cc2)c2ccc3c(c2)CCN3C)CC1 (centres undefined)
  5 | 1
O=C(NCc1ccccc1CS(=O)(=O)N1CCOCC1)c1ccc(F)cc1F
  33 | 23
Cc1ccccc1-c1cc2nc(NCCCN(C)C)n(C)c(=O)c2s1
  5 | 1
CCn1cc(C(CC(=O)NCCc2ccc(OC)c(OC)c2)c2cccc(C)c2)c2ccccc21 (centres undefined)
  0 | 0
CCn1ccnc1CN(C)C(=O)c1cc(COc2cccc3cnccc23)on1
  3&9 | -3&2
CC(C)c1ccc(N=C2N=C(N)c3ccccc32)cc1
  11 | 11
Cc1cc(C2CCC2)nc(N2CCN(Cc3nccn3C)CC2)n1
  7 | 5
O=C(NCCCN1CCCCCC1)N1CC2C3CCC(O3)C2C1 (centres undefined)
  -12 | -12
Cn1c2ccccc2n2c(C(O)C(Cl)(Cl)Cl)c(-c3ccccc3)nc12 (centres undefined)
  -15 | -23
O=C(NCc1ccc(F)cc1)c1nnn(-c2ccccc2)c1CSc1ncccn1
  -2 | -5
COc1ccc(C2(C(=O)NS(=O)(=O)c3cccnc3)CCCC2)cc1
  6 | 0
Cc1ccc(NC(=O)c2cc(-c3ccc([N+](=O)[O-])cc3)nn2-c2cc(C)ccc2C)cc1
  21 | 27
CCOC(=O)C1(CCCc2ccccc2)CCCN(C(=O)c2c(C)noc2C)C1 (centres undefined)
  -6 | -10
CC(=O)N1CCN(c2nc3ccc(C)cc3cc2CN(CCC2=CCCCC2)C(=O)C(C)C)CC1
  28 | 11

# Given as labelled records: 3 of the compounds above.
> CC(C)c1ccc(N2CCN(C(=O)c3cccc(F)c3)C(C)C2=O)cc1 (centres undefined)
  NPYLR7 ag = -8; NPYLR7 ag max-min = 0
> COC(=O)c1ccc(CCNS(=O)(=O)N2CCCCCC2)cc1
  NPYLR7 ag = -2; NPYLR7 ag max-min = -2
> CC(C)CNc1nnc(SCC(=O)Nc2ccccc2)s1
  NPYLR7 ag = 11; NPYLR7 ag max-min = 10
